Compound activity from PubChem BioAssay.
Sa growth 42C: inhibitors of Staphylococcus aureus growth at 42 °C; S. aureus RN4220 growth, OD600, 20 h; stronger effect = lower value; relative growth, % (test concentration not listed); 170,000 compounds, 0.53% hits;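 active = growth at 42 °C up to 50% and 20 or more points under that at 30 °C, or under 10% at both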;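 note: 300 nL library stock went into each well; scaled to the means of positive and negative controls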
GIV Gai3 FP: GIV-Galpha-i interaction inhibition; Galpha-i3/FITC-GIV peptide fluorescence polarization, 90 min; stronger effect = lower value; scaled: aluminum fluoride 0%, vehicle 100%; percent of control (FP), % (concentration not given with the values); 210,000 compounds, 0.42% hits; AID 1224905;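 active = replicate mean at 85% of control or lower, very high polarization wells dropped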;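 note: wells of about 15 µL received 100 nL stock; the first replicate is given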
Target sequence (P08753 whole entry, looked up): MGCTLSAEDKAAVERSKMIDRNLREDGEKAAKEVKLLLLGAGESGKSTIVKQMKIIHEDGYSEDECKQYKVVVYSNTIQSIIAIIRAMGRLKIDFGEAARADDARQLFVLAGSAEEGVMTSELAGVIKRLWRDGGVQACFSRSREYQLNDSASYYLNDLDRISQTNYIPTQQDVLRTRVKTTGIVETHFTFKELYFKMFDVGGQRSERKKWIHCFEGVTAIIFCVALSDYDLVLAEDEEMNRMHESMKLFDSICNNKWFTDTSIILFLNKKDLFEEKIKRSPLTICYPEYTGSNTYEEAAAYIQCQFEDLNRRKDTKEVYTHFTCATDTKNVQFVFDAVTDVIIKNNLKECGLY
HCMV UL50-53 inh: inhibitors of HCMV UL50-UL53 nuclear egress complex interaction; inhibition, % (concentration not given with the values); HTRF UL50-UL53 interaction, normalized percent inhibition; 190,000 compounds, 0.15% hits;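 active = both replicates at 50% or more, plus weaker picks with an unusually low signal ratio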;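 note: stock transfer was 100 nL into about 20 µL; 0% = negative control wells and 100% = wells with untagged competitor protein; inactives centre near -12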
Sa growth 42C second temp: recorded beside Sa growth 42C, whose call it bears; relative growth, %; measured here: growth at 30 °C;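 optical density after 20 h as mean of two plates; 100% = untreated growth and lower means inhibition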
The depositor's hits bear a star; · = no result given; & = joins results of further samples.

SMILES | Sa growth 42C | Sa growth 42C second temp | GIV Gai3 FP | HCMV UL50-53 inh
CCc1ccc(CNC(=O)C2CCN(S(=O)(=O)N3CCCCC3)CC2)cc1 | 109 | 86 | 99 | ·
CCC(Oc1ccccc1F)C(=O)N1CCC(c2nc3ccccc3s2)CC1 (stereo unspecified) | 89 | 20 | 103 | 7
COC(=O)c1cc2oc(C)cc2n1CC(=O)Nc1cc(Cl)ccc1OC | 110 | 78 | 111 | -5
Cc1sc2ncnc(SCC(=O)NC(=O)c3cccn3C)c2c1C | 111 | 88 | · | -9
CN1CCC(N(C)C(=O)c2ccccc2F)CC1 | 95 | 86 | · | -4
CCN(CC)S(=O)(=O)Cc1ccccc1 | 95 | 77 | 109 | -7
c1ccc(CCc2nn3c(CSc4ccccc4)nnc3s2)cc1 | · | · | 116 | 9
CCn1c(COC(=O)CCOc2cc(C)ccc2C)nc2cc(S(=O)(=O)N(C)C)ccc21 | 89 | 95 | · | -27
Cn1c(SCc2ccc(-c3nnco3)cc2)nnc1C(F)(F)F | 94 | 101 | 97 | -6
Cc1cc(C(=O)Cn2c(C)nc3ccccc32)c(C)n1-c1c(C)n(C)n(-c2ccccc2)c1=O | 75 | 75 | · | -34
Cc1cccc(N2OC(C)(N(O)c3cccc(C)c3)CC2(C)C)c1 (stereo unspecified) | 89 | 93 | · | -2
NC(=O)c1c(Cl)ncc2c1NCC2 | 99 | 89 | 104 | ·
Cc1ccc2ncc(C(=O)Nc3ccc(F)cc3F)c(=O)n2c1 | 109 | 90 | 98 | -15
Cc1cc(C)cc(-n2ccn3c(CC(C)(C)CC(=O)O)nnc3c2=O)c1 | 92 | 85 | 98 | 9
NS(=O)(=O)c1ccc(NC(=O)COC(=O)c2cccc(N3C(=O)CCC3=O)c2)cc1 | 87 | 84 | · | -15
CC(C)n1cnc2nc(CSc3ccccc3NC(=O)COc3ccc(Cl)cc3)cc(=O)n21 | · | · | 96 | -30
Cc1cc(C(=O)CSc2nnc3ccccn23)c(C)n1C | 89 | 94 | · | -10
Cn1c(/C=N/n2cnnc2)nc2ccccc21 | 120 | 86 | · | -32
COc1ccc(-c2ocnc2C(=O)NCc2cc(OC)ccc2OC)cc1 | · | · | 103 | -12
COc1ccc(C2Sc3ccccc3NC3=C2C(=O)c2ccccc23)c(OC)c1 (stereo unspecified) | · | · | 101 | -43
CN1/C(=C\C(=O)COC(=O)CC2CCCC2)C(C)(C)c2ccccc21 | 103 | 91 | · | -4
Cc1ccc(NC(=O)Cn2c(=O)ccc3cc(S(=O)(=O)N4CCC(C)CC4)ccc32)cc1C | 100 | 88 | 98 | ·
Cn1ccsc1=NC(=O)c1ccc2c(c1)C(=O)N(Cc1ccccc1)C2=O | 97 | 95 | · | -1
CC(=O)NCCn1c(SCc2ccccc2C)nc2ccccc2c1=O | 114 | 87 | 106 | ·

Some of these compounds in order of the Sa growth 42C second temp value, largest number first:
SMILES,Sa growth 42C,Sa growth 42C second temp,GIV Gai3 FP
Cc1ccc(NC(=O)Cn2c(=O)ccc3cc(S(=O)(=O)N4CCC(C)CC4)ccc32)cc1C,100,88,98
CC(=O)NCCn1c(SCc2ccccc2C)nc2ccccc2c1=O,114,87,106
Cc1cc(C)cc(-n2ccn3c(CC(C)(C)CC(=O)O)nnc3c2=O)c1,92,85,98

Going on with the list.
SMILES | Sa growth 42C | Sa growth 42C second temp | GIV Gai3 FP | HCMV UL50-53 inh
O=S(=O)(Nc1ccc2c(c1)nc1n2CCN(Cc2ccccc2)C1)c1ccccc1 | 136 | 84 | 92 | -11
CCn1c(C(=O)NCc2ccc(C)cc2)cc2oc3ccccc3c21 | 95 | 92 | 108 | -8
Cc1nn(Cc2nnc(-c3cccs3)o2)c(C)c1Br | 86 | 93 | 95 | -16
CC(C)(Nc1ccccc1N)c1nc2ccccc2[nH]1 | 108 | 90 | · | -9
CCOC(=O)c1sc(NC(=O)c2cc(S(N)(=O)=O)c(Cl)cc2Cl)c(C(=O)OCC)c1C | · | · | 107 | -11
Cc1ccc(C)c(CN2C(=O)c3ccccc3S(=O)(=O)c3ccc(C(=O)Nc4ccccc4C(F)(F)F)cc32)c1 | 100 | 94 | 102 | -12
COc1ccc(CC(=S)N2CCOCC2)cc1 | 87 | 83 | 104 | -7
COc1ccc(-c2cc3n(n2)CCC(=O)N3CC(=O)NCC2CCCO2)cc1 (stereo unspecified) | · | · | 110 | -7
Cc1cc(NC(=O)C2CCN(S(=O)(=O)c3ccccc3)CC2)ccc1-n1cnnn1 | 115 | 90 | 102 | -2
O=C(CN1C(=O)CSc2ccc(C(=O)N3CCCC3)cc21)N1CCN(c2ncccn2)CC1 | · | · | 108 | -5
CCCn1c(=O)c2cc(F)ccc2n2c(=S)[nH]nc12 | · | · | 98 | -4
CCN1CCN(C(=O)c2ccc3c(c2)N(Cc2c(F)cccc2Cl)C(=O)c2ccccc2S3)CC1 | 94 | 87 | 106 | -20

As a short view, 6 of the compounds above.
SMILES | Sa growth 42C | Sa growth 42C second temp | GIV Gai3 FP | HCMV UL50-53 inh
O=S(=O)(Nc1ccc2c(c1)nc1n2CCN(Cc2ccccc2)C1)c1ccccc1 | 136 | 84 | 92 | -11
CCn1c(C(=O)NCc2ccc(C)cc2)cc2oc3ccccc3c21 | 95 | 92 | 108 | -8
Cc1nn(Cc2nnc(-c3cccs3)o2)c(C)c1Br | 86 | 93 | 95 | -16
CC(C)(Nc1ccccc1N)c1nc2ccccc2[nH]1 | 108 | 90 | · | -9
CCOC(=O)c1sc(NC(=O)c2cc(S(N)(=O)=O)c(Cl)cc2Cl)c(C(=O)OCC)c1C | · | · | 107 | -11
Cc1ccc(C)c(CN2C(=O)c3ccccc3S(=O)(=O)c3ccc(C(=O)Nc4ccccc4C(F)(F)F)cc32)c1 | 100 | 94 | 102 | -12

Next section
SMILES | Sa growth 42C | Sa growth 42C second temp | GIV Gai3 FP | HCMV UL50-53 inh
O=C(Nc1ccccc1)O/N=C1/CCCc2occc21 | 95 | 89 | 107 | -11
Cc1ccc(CCNC(=O)CCn2cnc3onc(-c4ccc(F)cc4)c3c2=O)cc1 | 108 | 97 | 101 | -14
Cc1ccc(OCCn2c(SCC(O)COc3ccccc3)nc3c(N)ncnc32)cc1 (stereo unspecified) | · | · | 106 | -2
CCOc1ccc(-c2cn3cc(Cl)ccc3n2)cc1 | · | · | 101 | -4
O=C1/C(=C/c2ccsc2)Cc2ccccc21 | 125 | 74 | 101 | ·
CC1=CC2=NC(C(F)(F)F)(C(F)(F)F)N=C(C)N2C=C1 | 104 | 97 | 100 | ·
O=C(C1CC2c3ccccc3C1c1ccccc12)N1CCOCC1 (stereo unspecified) | 107 | 95 | 101 | -25
COc1ccc(Cn2c(CN3C(=O)c4ccccc4C3=O)nc3cccnc32)cc1 | 106 | 91 | 106 | -38
O=C(NCCO)c1ccc(-c2nnc(Nc3ccc(O)cc3)c3ccccc23)cc1 | · | · | 103 | -40
O=C(NCCN1CCCCC1)Nc1cccc(Cl)c1 | 102 | 88 | · | 2
O=C(Cn1ncc2c3ccccc3n(Cc3ccccc3F)c2c1=O)N1CCCCCC1 | 104 | 84 | 102 | -27
Cc1nc(-c2ccc(-c3ccno3)s2)no1 | 97 | 92 | 108 | -149
CN(Cc1ccco1)C(=O)CSc1ccc2c(c1)OCCO2 | 102 | 87 | · | -12
CNC(=O)c1c(NC(=O)c2ccc(S(=O)(=O)N3CCCCC3)cc2)sc2c1CCC2 | 99 | 93 | 103&103 | ·
CCC(C)NC(=O)Nc1cccc2ccccc12 (stereo unspecified) | 94 | 106 | 106 | -48
COc1ccc(N2CC(NC(=O)COc3ccc4ccccc4c3)CC2=O)cc1OC (stereo unspecified) | 108 | 90 | 107 | ·
c1ccc(C(c2ccccc2)N2CCN(CCCc3c[nH]c4ccccc34)CC2)cc1 | 82 | 87 | 105 | ·
CNC(=O)n1cc(Br)c(/C(N)=N\OCc2ccccc2)n1 | 97 | 71 | 108 | -15
Cc1cccc(CSc2nnc3[nH]c(=O)cc(-c4ccccc4)n23)c1 | 108 | 85 | 101 | ·
O=C(/C=C/c1cnc2ccccc2n1)N1CCN(S(=O)(=O)c2ccccc2)CC1 | 86 | 87 | · | -83
CSc1nc(-c2cnccn2)nc(-c2ccco2)c1C#N | 104 | 81 | 101 | -10
CC1Cc2ccccc2N1C(=O)COc1ncnc2sccc12 (stereo unspecified) | 98 | 88 | · | -17
CN1CCN(C2=C(C(=O)Nc3ccc(Cl)cc3)CC/C2=C\c2ccccc2)CC1 | 75 | 70 | · | -5
COC(=O)C1C(=O)CC(=O)CC1c1ccc(OC)cc1 (stereo unspecified) | 109 | 105 | 107 | -1

Single records, as listed above. Screens in order: Sa growth 42C	Sa growth 42C second temp	GIV Gai3 FP	HCMV UL50-53 inh
`Cn1c(SCc2ccc(-c3nnco3)cc2)nnc1C(F)(F)F` is listed as 94	101	97	-6
`Cc1cc(NC(=O)C2CCN(S(=O)(=O)c3ccccc3)CC2)ccc1-n1cnnn1` is listed as 115	90	102	-2
`c1ccc(C(c2ccccc2)N2CCN(CCCc3c[nH]c4ccccc34)CC2)cc1` is listed as 82	87	105	·

Later entries:
SMILES | Sa growth 42C | Sa growth 42C second temp | GIV Gai3 FP | HCMV UL50-53 inh
COc1ccc2c(c1)-c1c(ssc1=S)C(C)(C)N2C(=O)CSc1n[nH]c(-c2ccc(C)cc2)n1 | · | · | 103 | -10
O=C(NCCc1ccccc1)c1ccc(NC2=NC3CS(=O)(=O)CC3S2)cc1 (stereo unspecified) | 114 | 94 | 103 | ·
Cc1ccc(NC(=O)CNCCCN2CCOCC2)cc1Br | 112 | 75 | 102 | -4
Cc1ccc(NC(=O)COC(=O)c2cccs2)c(C)c1 | 96 | 101 | · | 3
CCOC(=O)c1ccc(NC(=O)C(CC)Sc2nc3ccsc3c(=O)n2Cc2ccccn2)cc1 (stereo unspecified) | 84 | 81 | 103 | 2
CC(C)c1ccc(NC(=O)NC2(C(F)(F)F)Oc3ccccc3O2)cc1 | 95 | 84 | 94 | ·
O=C(CCCn1c(=O)c2cccn2c2cccnc21)Nc1ccccc1Br | 93 | 81 | 103 | ·
Cc1cc(C)c(C#N)c(SCC(=O)NC2CC2)n1 | 75 | 83 | 100 | -4
Cc1ccc(Cn2c(SCC(=O)Nc3ccccc3C)nc3ncccc3c2=O)cc1 | 90 | 78 | 106 | 0
CCNCC(=O)NCc1cccs1 | 96 | 95 | · | 10
CCOCCCNc1ncnc2c1cnn2-c1ccc(C)c(C)c1 | 100 | 84 | 102 | ·
CCC(=O)N1CCNC(=O)C1CC(=O)Nc1ccc(C)c(Cl)c1 (stereo unspecified) | 114 | 84 | 105 | ·
Cc1ccc(NC(=O)Nc2c[nH]c(=O)[nH]c2=O)c(Cl)c1 | 101 | 89 | 100 | ·
CCN1CCCC1CNC(=O)CCCc1cn(CC)c2ccccc12 (stereo unspecified) | 106 | 88 | 102 | ·
Cc1nc2ccccc2nc1OCC(=O)Nc1ccccc1 | 91 | 95 | · | 7
O=C(NCCC(c1ccccc1)c1ccco1)c1cccs1 (stereo unspecified) | 115 | 75 | 105 | 1
C=CCN(C)NC(=S)Nc1ccccc1 | 81 | 101 | 93 | 3
CCOc1ccc(NC(=O)c2ccc(-c3ccccc3F)o2)cc1 | 103 | 113 | 105 | 4
C=CCC1CC(=O)N(c2ccc(C(C)(C)C)cc2)C1=O (stereo unspecified) | 101 | 115 | 100 | 1
Cc1ccc2[nH]c(C)c(C(O)CN3CCN(c4ccccc4)CC3)c2c1 (stereo unspecified) | · | · | 102 | -12
CC(C)COc1cccc(C(=O)O)c1 | 77 | 87 | · | -26
CCOc1ccc(-c2nonc2NC(=O)COc2ccc(C(C)(C)C)cc2)cc1C | · | · | 105 | -7
Cc1csc2ncc(C(=O)NC(C)C)c(=O)n12 | · | · | 105 | -3
Cc1nnc(SCC(=O)Nc2ccc3c(c2)OCCO3)n1N | 111 | 92 | · | 7
CCCc1nc(-n2cccc2)sc1C(=O)NCc1ccc(C)cc1 | · | · | 102 | -17
CC1SCC(=O)N(c2cc(Cl)ccc2Cl)C1=O (stereo unspecified) | · | · | 102 | 11
Cc1ccc(NC(=O)CN2C=NS(=O)(=O)c3ccccc32)cc1 | 104 | 86 | 105 | ·
COc1cc(OC)cc(C(=O)N2CC(OCc3ccc(Cl)cc3)C2)c1 | · | · | 98 | -16
COCCn1c(C)cc(O)c(C(c2ccccc2)N2CCN(c3ccc(F)cc3)CC2)c1=O (stereo unspecified) | 110 | 99 | 104 | ·

A draw from above in order of length of the SMILES, ascending.
SMILES | Sa growth 42C | Sa growth 42C second temp | GIV Gai3 FP | HCMV UL50-53 inh
Cc1csc2ncc(C(=O)NC(C)C)c(=O)n12 | · | · | 105 | -3
CN(Cc1ccco1)C(=O)CSc1ccc2c(c1)OCCO2 | 102 | 87 | · | -12
Cc1cccc(CSc2nnc3[nH]c(=O)cc(-c4ccccc4)n23)c1 | 108 | 85 | 101 | ·
O=C(CN1C(=O)CSc2ccc(C(=O)N3CCCC3)cc21)N1CCN(c2ncccn2)CC1 | · | · | 108 | -5
Cc1ccc(NC(=O)Cn2c(=O)ccc3cc(S(=O)(=O)N4CCC(C)CC4)ccc32)cc1C | 100 | 88 | 98 | ·
